ALR inh: human ALR oxidase inhibition via reduced H2O2. P55789. inhibition, % (concentration not given with the values). purified ALR, DTT oxidation, H2O2 HRP-luminol luminescence. 290,000 tested, 3.8% active;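 active = mean and each replicate at 75% or more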;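 note: stock transfer was 7.5 nL into about 7.5 µL; 0% = neutral wells and 100% = wells with inactivated enzyme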
Target sequence (P55789 whole entry, looked up): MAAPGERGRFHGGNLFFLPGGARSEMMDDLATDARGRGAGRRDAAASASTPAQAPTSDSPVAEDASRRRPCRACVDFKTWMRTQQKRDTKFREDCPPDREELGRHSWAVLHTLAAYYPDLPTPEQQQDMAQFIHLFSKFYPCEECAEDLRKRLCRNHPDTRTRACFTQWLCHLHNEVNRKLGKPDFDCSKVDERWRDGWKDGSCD
E coli growth: blocks Escherichia coli growth | OD600, 23 h; stronger effect = lower value | OD600 absorbance (concentration not given with the values) | 330,000 tested, 0.21% active;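 active = OD600 absorbance below the run mean of sample wells minus 3.6 SD, in any replicate, cut at about 0.56 in these data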;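 note: stock transfer was 300 nL into about 60 µL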
rRNA inh HTS: inhibitors of bacterial rRNA selective over humanized ribosomes; E. coli WT GFP vs humanized-ribosome RFP mutants, fluorescence, 24 h; stronger effect = lower value; DMSO median 0, no signal -100; GFP signal change (wild-type ribosome), % (concentration not given with the values); AID 720706; 350,000 tested, 1.6% active;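 active = significant combined selectivity score with lowered wild-type GFP, culture density cut under 30%, mutant RFP and density less affected; inactive = any of these conditions unmet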; note: one replicate is shown; some compounds called inactive have numbers as strong as hits
HNF4A DNA FP: change in binding of human HNF4 alpha to DNA. HNF4a-FITC DNA binding, fluorescence polarization, 1 h. activity change, % at 10 µM. 360,000 tested, 0.3% active; in the data active = activity change above about 30%, passing the limit was not always enough;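 note: controls were the assay level and a saturating level of protein; the project sought stronger binding though the title names inhibitors; some compounds called inactive have numbers as strong as hits; positive values seem to mean higher polarization but the record does not say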
Beta2AR agonist: agonists of human beta-2 adrenergic receptor inducing internalization; 340,000 tested, 0.43% active; Am2.2-beta2AR cells, FAP receptor internalization, flow cytometry; reference of the scale not given here; response, % (test concentration not listed); P07550; AID 504454;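 active = response above a set limit, near 3 SD of response in nonfluorescent compounds, cut at about 42% in these data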;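 note: stock transfer was 100 nL into about 11 µL; a reference agonist was the positive control; negative values mostly stem from fluorescent compounds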
Target sequence (P07550 whole entry, looked up): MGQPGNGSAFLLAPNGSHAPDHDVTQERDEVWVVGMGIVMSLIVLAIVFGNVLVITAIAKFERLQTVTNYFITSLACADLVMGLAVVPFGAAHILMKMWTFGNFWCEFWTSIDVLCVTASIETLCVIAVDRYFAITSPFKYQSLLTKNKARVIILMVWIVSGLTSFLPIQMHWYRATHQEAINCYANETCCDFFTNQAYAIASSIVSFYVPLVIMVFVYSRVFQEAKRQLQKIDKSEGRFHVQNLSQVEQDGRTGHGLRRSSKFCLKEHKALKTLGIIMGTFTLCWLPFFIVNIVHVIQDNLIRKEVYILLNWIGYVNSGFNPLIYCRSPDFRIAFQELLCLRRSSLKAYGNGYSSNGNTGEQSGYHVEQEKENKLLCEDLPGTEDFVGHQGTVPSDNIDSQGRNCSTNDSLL
UCH37 DUB inh: inhibitors of human deubiquitinating enzyme UCH37. inhibition, % (no concentration beside the values). 330,000 tested, 0.33% active. purified proteasome/UCH37, Ub-AMC cleavage fluorescence. Q9Y5K5;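 active = mean of two replicates above 20%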;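 note: 0% = compound-free wells with enzyme and 100% = wells lacking proteasome; stock transfer was 100 nL into about 20 µL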
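assay system = human UCH37 enzyme supplied as purified proteasome complex | amount = proteasome at 0.15 nM in the dispensed enzyme solution | schedule = 30 min compound-proteasome preincubation then 25 min substrate reaction, room temperature | measured by = fluorescence, ex 355 nm, em 460 nm | benchmarks = no-proteasome wells (full inhibition) and compound-free wells (no inhibition)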
FGF22 binding: shifts melting point of recombinant human FGF22; recombinant FGF22 thermal shift, SYPRO orange fluorescence; percent of sucrose octasulfate shift, DMSO zero; calls only at 9.99 µM; 340,000 tested, 1.5% active;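 active = melting point raised past a set limit in the mean and every replicate; three in four hits are not shown here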
Target sequence (Q9HCT0 whole entry, looked up): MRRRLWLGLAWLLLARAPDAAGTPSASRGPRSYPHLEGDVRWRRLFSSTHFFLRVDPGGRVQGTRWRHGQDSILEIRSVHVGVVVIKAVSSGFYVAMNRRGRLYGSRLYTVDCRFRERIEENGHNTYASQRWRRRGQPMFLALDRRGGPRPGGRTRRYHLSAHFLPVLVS
rRNA inh HTS OD600: also measured in rRNA inh HTS; calls as there; OD600 change, %; measured here: OD600 growth;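 optical density of the mix in the first replicate; 0 = DMSO median and -100 = no signal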
rRNA inh HTS RFP: second read-out of rRNA inh HTS, no call of its own (marks repeat the call); RFP signal change, %; measured here: RFP humanized mutant strains;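 first replicate; 0 = DMSO median and -100 = no signal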
* = called active by the depositor. A portion of the library. The share of hits here may be higher or lower than overall.

For COc1ccc(NC2CCCN(C(=O)c3ccc4[nH]c(C)c(C)c4c3)C2)cc1OC (configuration not stated) the results were ALR inh 99*, E coli growth 0.68, rRNA inh HTS -2, HNF4A DNA FP 0.4, Beta2AR agonist 3, UCH37 DUB inh 2.3, FGF22 binding inactive, rRNA inh HTS OD600 -5 and rRNA inh HTS RFP -3.4.
Cc1ccccc1NC(=O)CC1(c2ccc(N(C)C)cc2)C(=O)c2ccccc2C1=O was read as ALR inh 28, E coli growth 0.73, HNF4A DNA FP -8.6, Beta2AR agonist 1 and UCH37 DUB inh 3.4.
`CC(=O)Nc1ccc(S(=O)(=O)NC(CC(=O)N(C)Cc2ccccc2)C(C)C)cc1` (configuration not stated) gave ALR inh -4, E coli growth 0.74, HNF4A DNA FP 0.6, Beta2AR agonist -2 and UCH37 DUB inh 0.4.
`COC(=O)CSc1nnc(-c2ccc(S(=O)(=O)N3CCCC3)cc2)n1C` gave ALR inh -43, E coli growth 0.71, HNF4A DNA FP -0.4, Beta2AR agonist 0 and UCH37 DUB inh 0.5.
For CCN(C(=O)CSc1nnc(Cn2nnc3ccccc32)o1)c1nc(C)cs1 the results were ALR inh -3, E coli growth 0.72, HNF4A DNA FP -2.2, Beta2AR agonist 4 and UCH37 DUB inh 2.5.
Screening COCC(=O)Nc1ccc2nc3n(c(=O)c2c1)CCCCC3 returned ALR inh 9, E coli growth 0.68, rRNA inh HTS 14, HNF4A DNA FP 2.4, Beta2AR agonist 3, UCH37 DUB inh 1.1, FGF22 binding inactive, rRNA inh HTS OD600 5 and rRNA inh HTS RFP -0.9.
For Cc1ccc(C(=O)N/C(=C\c2cccs2)C(=O)NCCc2ccccn2)cc1C the results were ALR inh -2, E coli growth 0.68, rRNA inh HTS -6, HNF4A DNA FP 1.9, Beta2AR agonist -3, UCH37 DUB inh 1.8, FGF22 binding inactive, rRNA inh HTS OD600 0 and rRNA inh HTS RFP 2.5.
`O=c1[nH]c(=O)n(C2CCCO2)cc1Br` (configuration not stated) gave ALR inh -30, HNF4A DNA FP 0.5 and Beta2AR agonist -10.
For Cc1noc(NS(=O)(=O)c2ccc(N/C=C\C(=O)c3cccs3)cc2)c1C the results were ALR inh 11, E coli growth 0.66, rRNA inh HTS -12, HNF4A DNA FP -3.9, Beta2AR agonist 4, UCH37 DUB inh 12, FGF22 binding inactive, rRNA inh HTS OD600 3 and rRNA inh HTS RFP 2.3.
For CCOc1ccccc1NC(=O)C(OC(=O)c1ccccc1O)c1ccccc1 (configuration not stated) the results were ALR inh -3, E coli growth 0.66, rRNA inh HTS 8, HNF4A DNA FP 1.9, Beta2AR agonist -2, UCH37 DUB inh -1.8, FGF22 binding inactive, rRNA inh HTS OD600 6 and rRNA inh HTS RFP 3.3.
Screening c1ccc2cc3[nH]c(CN4CCCCC4)nc3cc2c1 returned ALR inh -5, E coli growth 0.76, rRNA inh HTS 1, HNF4A DNA FP 33*, Beta2AR agonist -6, UCH37 DUB inh 2.1, FGF22 binding inactive, rRNA inh HTS OD600 8 and rRNA inh HTS RFP -3.0.
Cc1ccc(C(=O)NNC(=O)c2ccc(Br)s2)cc1S(=O)(=O)N1CCOCC1 was read as ALR inh 9, E coli growth 0.7, rRNA inh HTS -5, HNF4A DNA FP 0.5, Beta2AR agonist 11, UCH37 DUB inh 2.8, FGF22 binding inactive, rRNA inh HTS OD600 -5 and rRNA inh HTS RFP -3.1.
For COc1ccc(CCNC(=O)COC(=O)C23CC4CC(CC(C4)C2)C3)cc1 the results were ALR inh -4, E coli growth 0.6, rRNA inh HTS -25, HNF4A DNA FP 0.2, Beta2AR agonist 12, UCH37 DUB inh 0.7, FGF22 binding inactive, rRNA inh HTS OD600 -27 and rRNA inh HTS RFP -6.1.
CC(C(=O)N1CCCc2ccccc21)N1CCN(c2ccccn2)CC1 (configuration not stated) was read as E coli growth 0.65, rRNA inh HTS 1, HNF4A DNA FP 12, Beta2AR agonist -8, UCH37 DUB inh 2.5, FGF22 binding inactive, rRNA inh HTS OD600 0 and rRNA inh HTS RFP -3.0.
Screening Cc1ccc(OCC(=O)Nc2ccc(N3CCCC3)cc2)cc1C returned ALR inh -3, E coli growth 0.71, HNF4A DNA FP 0.1, Beta2AR agonist 5 and UCH37 DUB inh 1.8.
For COc1ccc(NC(=O)NNC(=O)c2ccc(-c3ccccc3)cc2)cc1 the results were ALR inh -2, E coli growth 0.76, rRNA inh HTS 8, HNF4A DNA FP -4.4, Beta2AR agonist -2, UCH37 DUB inh 0.0, FGF22 binding inactive, rRNA inh HTS OD600 16 and rRNA inh HTS RFP 2.9.
Screening CCCCn1c(N)c(N(CCOC)C(=O)CSc2ccc([N+](=O)[O-])cc2)c(=O)[nH]c1=O returned ALR inh -6, E coli growth 0.72, rRNA inh HTS 22, HNF4A DNA FP 1.8, Beta2AR agonist -4, UCH37 DUB inh 4.1, FGF22 binding inactive, rRNA inh HTS OD600 2 and rRNA inh HTS RFP 0.0.
`COc1ccc(OCCOCCN2CCOCC2)cc1` gave ALR inh -2, E coli growth 0.69, HNF4A DNA FP -0.2, Beta2AR agonist 8 and UCH37 DUB inh 0.4.
For Cn1c(=O)c(C=Nc2ccccc2)c(O)c2ccccc21 the results were ALR inh -11, E coli growth 0.68 and UCH37 DUB inh -5.6.
`CN(C)C(=O)c1coc2nc3ccccc3nc12` gave E coli growth 0.69, rRNA inh HTS 12, HNF4A DNA FP 3.8, Beta2AR agonist 0, UCH37 DUB inh -179, FGF22 binding inactive, rRNA inh HTS OD600 6 and rRNA inh HTS RFP 0.0.
`Nc1ccccc1Sc1cc(Cl)nnc1Cl` gave ALR inh 1, E coli growth 0.64, rRNA inh HTS 2, HNF4A DNA FP 0.3, Beta2AR agonist 0, UCH37 DUB inh 0.0, FGF22 binding inactive, rRNA inh HTS OD600 3 and rRNA inh HTS RFP -2.2.
`O=C(Nc1cc(C(F)(F)F)ccc1F)C1CCC1` gave ALR inh 1, E coli growth 0.76, HNF4A DNA FP -1.6, Beta2AR agonist -4 and UCH37 DUB inh 5.0.
`Cc1[nH]c2ccc(C(=O)N3CCCCC3)cc2c1C` gave ALR inh 96*, E coli growth 0.71, rRNA inh HTS 1, HNF4A DNA FP 0.8, Beta2AR agonist 0, UCH37 DUB inh 3.4, FGF22 binding inactive, rRNA inh HTS OD600 -16 and rRNA inh HTS RFP -0.5.
Screening O=C(CN1CCN(C(=O)CNC(=O)c2ccc3c(c2)OCO3)CC1)Nc1ccccc1Cl returned ALR inh -5, E coli growth 0.67, rRNA inh HTS 3, HNF4A DNA FP 1.7, Beta2AR agonist 0, UCH37 DUB inh 0.4, FGF22 binding inactive, rRNA inh HTS OD600 8 and rRNA inh HTS RFP -0.6.
For O=C(NCc1ccccc1)c1ccc[n+]([O-])c1 the results were ALR inh -3, E coli growth 0.71, rRNA inh HTS 2, HNF4A DNA FP 2.4, Beta2AR agonist -1, UCH37 DUB inh 1.9, FGF22 binding inactive, rRNA inh HTS OD600 7 and rRNA inh HTS RFP 0.9.
CN1C(C(=O)NCC2CC2)CC2Cn3c(nc4ccccc43)C21 (configuration not stated) was read as ALR inh -2, E coli growth 0.7, rRNA inh HTS 2, HNF4A DNA FP 4.2, Beta2AR agonist 5, UCH37 DUB inh -2.1, FGF22 binding inactive, rRNA inh HTS OD600 2 and rRNA inh HTS RFP 2.1.
Screening Cc1ccc(N(CCC(=O)O)S(=O)(=O)c2ccc(C)cc2)cc1 returned ALR inh 3, E coli growth 0.66, HNF4A DNA FP -0.7, Beta2AR agonist 5 and UCH37 DUB inh 1.9.
Screening Cc1ccc(C(=O)N2CCCC(c3ccccc3)=N2)cc1 returned ALR inh -1, E coli growth 0.66, rRNA inh HTS -1, HNF4A DNA FP 1.6, Beta2AR agonist 12, UCH37 DUB inh 0.6, FGF22 binding inactive, rRNA inh HTS OD600 -1 and rRNA inh HTS RFP -1.0.
Screening CN(C)CCCN(Cc1cc2cc3c(cc2[nH]c1=O)OCO3)C(=S)Nc1cccc(Cl)c1 returned ALR inh -13, E coli growth 0.72, rRNA inh HTS -41, HNF4A DNA FP -3.0, Beta2AR agonist 12, UCH37 DUB inh -77, FGF22 binding inactive, rRNA inh HTS OD600 -58 and rRNA inh HTS RFP 28.
For C=C(C)c1cccc(C(C)(C)NC(=O)NNC(=O)c2ccccc2O)c1 the results were ALR inh 12, E coli growth 0.64, rRNA inh HTS -4, HNF4A DNA FP -0.6, Beta2AR agonist 7, UCH37 DUB inh -12, FGF22 binding inactive, rRNA inh HTS OD600 -13 and rRNA inh HTS RFP 1.9.
Screening COC(=O)N/N=C(\C)c1ccc(OC(F)F)cc1OC(F)F returned ALR inh 4, HNF4A DNA FP -1.4 and Beta2AR agonist -2.
Screening O=C(Nc1ccc2c(c1)CCC2)c1cnn2c1NC(c1ccco1)CC2C(F)(F)F (configuration not stated) returned E coli growth 0.73, HNF4A DNA FP 7.1, Beta2AR agonist 8 and UCH37 DUB inh 2.9.
For CCn1c(SCc2nc3cc(OC)c(OC)cc3c(=O)[nH]2)nc2ccccc21 the results were ALR inh 2, E coli growth 0.71, rRNA inh HTS 4, HNF4A DNA FP 0.7, Beta2AR agonist 2, UCH37 DUB inh 3.3, FGF22 binding inactive, rRNA inh HTS OD600 4 and rRNA inh HTS RFP -0.9.
`O=C(NCc1ccco1)c1ccc(S(=O)(=O)N2CCOCC2)cc1` gave ALR inh 11, E coli growth 0.73, HNF4A DNA FP -12, Beta2AR agonist 6 and UCH37 DUB inh 0.9.
Screening CCOC(=O)c1c(NC(=O)CN2C(=O)C(=O)N(CC(C)C)C2=O)sc(C)c1CC returned ALR inh -2, E coli growth 0.65, rRNA inh HTS 4, HNF4A DNA FP -1.1, Beta2AR agonist 2, UCH37 DUB inh 0.7, FGF22 binding inactive, rRNA inh HTS OD600 3 and rRNA inh HTS RFP -2.7.
`O=C(O)C(=O)Nc1ccc(NC(=O)C(c2ccccc2)c2ccccc2)cc1` gave ALR inh -10, E coli growth 0.68, rRNA inh HTS 9, HNF4A DNA FP 1.0, Beta2AR agonist -5, UCH37 DUB inh 2.7, FGF22 binding inactive, rRNA inh HTS OD600 4 and rRNA inh HTS RFP 0.8.

Compound activity: PubChem BioAssay, several laboratories
